WNV NS2B-NS3 inh – inhibitors of West Nile virus NS2B-NS3 protease. WNV NS2B-NS3 protease, fluorogenic substrate Ex360/Em465; active compounds read low. AID 577. P06935. actives 0.18% (n = 65,000). z-score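 (tested at a level between 10 and 100 µM)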;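 active = z-score at -3 or under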;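 also: score is relative to mean and spread of the compound wells of a plate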
Target sequence (P06935 1371-1501 limits assumed): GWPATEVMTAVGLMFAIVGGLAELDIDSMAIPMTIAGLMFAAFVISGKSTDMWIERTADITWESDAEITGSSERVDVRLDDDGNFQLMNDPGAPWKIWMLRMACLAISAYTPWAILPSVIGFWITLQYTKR
Target sequence (P06935 1502-1679 limits assumed): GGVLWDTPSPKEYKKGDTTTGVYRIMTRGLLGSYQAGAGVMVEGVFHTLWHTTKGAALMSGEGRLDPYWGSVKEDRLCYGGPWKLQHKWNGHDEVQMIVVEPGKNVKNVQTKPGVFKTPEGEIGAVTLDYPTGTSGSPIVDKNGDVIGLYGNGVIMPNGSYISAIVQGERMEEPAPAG
MT1-MMP reporter – MT1-MMP gene expression reporter suppression – cell-based, luciferase reporter, luminescence (AID 618); MT1-MMP promoter luciferase reporter cells, luminescence; calls from a first round at 10 µM; hits with a dose series show EC50 in µM; actives 0.62% (n = 87,000);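 active = over half of the reporter light lost at 10 µM or EC50 under 50 µM; inactive = the rest and hits that failed the dose series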;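 also: actives suppress MT1-MMP promoter-driven transcription so potencies describe inhibitors; HT1080 fibrosarcoma cells; overnight exposure; toxic or luciferase-blocking compounds were not removed from the actives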
Hsc70 – Hsc70 inhibitors, probe displacement, primary screen, biochemical, fluorescence polarization (AID 568); Hsc70 fluorescence polarization, probe displacement; higher % means a stronger effect; strong numbers were not always called active; one-dose displacement, % at 20 µM; IC50 in µM for titrated hits; 83,000 tested, under 10 active;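 active = displacement above 50% without optical interference and an IC50 on retest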;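 also: ATPase domain with a fluorescein-tagged ATP probe; 0% = vehicle and 100% = excess ADP; read after one hour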
Starred values were filed as active, the others as inactive; i = inactive; . = not tested or not shown. Compounds were not picked by outcome; overall some 0.77% were active at least once.

SMILES	WNV NS2B-NS3 inh	MT1-MMP reporter	Hsc70
COc1ccccc1NC(=O)C(Cc1ccc(Cl)cc1)c1nn[nH]n1 (stereo unspecified)	0.16	i	-2.7%
O=C(Cn1c(NCCO)nc2ccccc21)c1cccs1	-0.08	i	0.8%
COc1ccc(-c2oc(NC(=O)c3ccc(C)cc3)c(C#N)c2-c2ccc(OC)cc2)cc1	.	i	-2.3%
Clc1ccc(-c2nc(Cc3ccccc3)no2)cc1	.	i	3.9%
O=C(CSc1nc(C2CC2)nc2sc3c(c12)CCCC3)NCc1ccco1	0.47	i	-5.8%
Cc1nnc(SCC(=O)Nc2ccc(Oc3ccccc3)cc2)n1N	-0.8	i	-5.6%
CN1CCN(CC(=O)n2c3c(c4ccccc42)CCCC3)CC1	-0.93	i	1.9%
O=C(Nc1ccccc1C(F)(F)F)c1cc(-c2ccccc2O)on1	0.7	i	-4.0%
Cc1ccccc1C(=O)OCCCN=C1NS(=O)(=O)c2ccccc21	.	i	1.5%
COc1ccc(OC)c(C(C)NC=O)c1 (stereo unspecified)	-1.21	i	1.2%
COc1ccc(S(=O)(=O)N2CCCC(C(=O)N3CCN(C)CC3)C2)cc1C (stereo unspecified)	-0.97	i	-0.1%
CC1=C(C(=O)Nc2ccccc2)C(c2ccncc2)C(C#N)=C(SCC(=O)Nc2ccccc2)N1 (stereo unspecified)	.	i	0.8%
Cc1cnn(C(=O)c2ccccc2Br)c1	-0.61	i	6.7%
O=C(CCN1CCCCC1c1cccnc1)NCc1ccccc1 (stereo unspecified)	-0.81	i	2.7%
Cc1n[nH]c(C)c1C(=O)CC1(O)C(=O)N(CCc2ccccc2)c2ccc(Br)cc21 (stereo unspecified)	.	i	1.6%
CCn1cc(C(=O)NCc2ccco2)c(=O)c2cc(S(=O)(=O)N3CCc4ccccc4C3)ccc21	0.59	i	0.7%
Cc1ccc(-n2ncc3c(NCCCOC(C)C)ncnc32)c(C)c1	1.74	i	0.8%
CC(=O)Nc1ccc2nc(C3CCCCC3)[nH]c2c1	-0.62	i	1.6%
COc1ccc(-n2c(C)nc3cc(C(=O)O)ccc32)cc1	.	i	-3.1%
CC1(C)C(c2ccccn2)=[N+]([O-])C(C)(C)N1O	-0.65	i	3.2%
CCCc1cc(=O)[nH]c(SCC(=O)Nc2cc3c(cc2C(C)=O)OCO3)n1	-0.00717	i	-3.8%
CCCCCNC(=O)C(C#N)c1nc2ccccc2nc1N1CCCC1 (stereo unspecified)	0.24	i	32.9%
COc1ccc2nc(N3CCCC(C(=O)NCCCN4CCN(C)CC4)C3)sc2c1 (stereo unspecified)	-1.25	i	-1.0%
C=CCn1c(SCc2ccc(OC)cc2)nnc1-c1cccnc1	-0.68	i	-0.4%
Cc1cc(NC(=O)CCC(=O)N(CCC(C)C)CC(=O)NCC2CCCO2)no1 (stereo unspecified)	-0.43	i	-1.0%
O=C(Oc1ccccc1)c1ccc(-n2cnnn2)cc1	-0.51	i	2.5%
COc1ccc(C(C)(C)C)cc1NC(=O)c1ccoc1C	-0.83	i	-9.9%
Cc1ccc(-n2ncc3c2ncn2nc(-c4ccco4)nc32)c(C)c1	-0.14	i	0.9%
Cc1nc2ncnn2c(N2CCC(C(=O)NC3CCCC3)CC2)c1Cc1ccccc1	-0.37	i	-3.7%
CCOC(=O)CSc1nnc(Cn2nnc(-c3ccccc3)n2)n1CC	-0.15	i	3.9%
Cn1nc(C(=O)N2CCOCC2)c2ccccc2c1=O	-1.13	i	-0.4%
CCc1ccc(NC(=O)C(C)Oc2nnc(-c3cccs3)c(-c3cccs3)n2)cc1 (stereo unspecified)	.	i	-7.1%
NC(=O)c1ccc(NS(=O)(=O)c2ccccc2F)cc1	0.29	i	2.2%
COCC(C)n1c(C)cc(C(=O)COC(=O)c2ccc(N3CCCC3=O)cc2)c1C (stereo unspecified)	0.91	i	0.1%
CCOC(=O)c1c(C)n(C)c2ccc(O)c(CN3CCN(C)CC3)c12	0.85	i	0.5%
CC1CCCCN1C(=O)CSc1nnc(-c2cccnc2)n1C1CCCCC1 (stereo unspecified)	-1.39	i	-3.0%

Complete entries, looked up by structure. Values in the order: WNV NS2B-NS3 inh, MT1-MMP reporter, Hsc70
CCOC(=O)c1c(C)n(C)c2ccc(O)c(CN3CCN(C)CC3)c12 as listed: 0.85, i, 0.5%
Cc1cc(NC(=O)CCC(=O)N(CCC(C)C)CC(=O)NCC2CCCO2)no1 (stereo unspecified) as listed: -0.43, i, -1.0%

Next part:
SMILES	WNV NS2B-NS3 inh	MT1-MMP reporter	Hsc70
O=C(Nc1cccc(NC(=O)c2cccnc2Cl)c1)c1ccco1	.	i	2.3%
COC(=O)c1cc(=O)n(Cc2ccc3c(c2)OCO3)c(=Nc2ccccc2)s1	-0.00411	i	0.5%
CCOc1nc(C)ccc1-c1noc(C)n1	-0.09	i	-4.8%
CCCn1c(N)c(N2CCCCC2)c(=O)n(CC(=O)Nc2ccc(OC(F)(F)F)cc2)c1=O	.	i	1.1%
CC1CCN(c2nc3ccccc3nc2C(C#N)C(=O)NC2CCCCC2)CC1 (stereo unspecified)	-0.33	i	-17.0%
O=C(NCc1cccnc1)c1cc(S(=O)(=O)N2CCCCC2)ccc1Cl	1.33	i	-2.0%
COc1ccccc1CNc1ncnc2nc[nH]c12	-0.67	i	4.8%
O=C(NCCc1ccncc1)Nc1ccccc1Cl	2.1	i	-4.7%
O=C1Nc2ccc(NS(=O)(=O)c3cccs3)c3cccc1c23	-0.7	i	-2.9%
CCC(=O)NC1=C(C#N)C2(CCCC2)Cc2ccccc21	-0.76	i	0.2%
CCc1cc(C(=O)Cc2ccc(F)cc2)c(O)cc1O	0.06	i	10.9%
COc1ccc(-c2nnc(SC)n2C)cc1	-0.18	i	-1.9%
CC(=O)Nc1nnc(SCc2ccc(F)cc2)s1	.	i	6.4%
Cc1ccc(N2CC(C(=O)Nc3ccccc3C(=O)NC3CCCCC3)CC2=O)cc1C (stereo unspecified)	.	i	-1.6%
COc1cc(C2NC(=O)NC(O)(C(F)(F)F)C2C(C)=O)cc(OC)c1OC (stereo unspecified)	-1.78	i	4.5%
Cc1nnc(NC(=O)COc2ccccc2)s1	.	i	-4.7%
CCOC(=O)c1ccc(NC(=O)C2CC2)cc1	-0.16	i	-1.0%
CCOc1nc2ccccc2nc1C	.	i	10.1%
c1ccc(-c2ccccn2)nc1	2.02	i	2.0%
O=C(NC1CCCCC1)C(c1ccc(F)cc1)N(Cc1ccc2c(c1)OCO2)C(=O)c1cnsn1 (stereo unspecified)	.	i	1.6%
COC(=O)c1cc(Br)c(=O)n(-c2ccc(F)cc2)c1	.	i	0.7%
Cc1ccc(S(=O)(=O)Nc2ccc3c(c2)ncn3C(C)(C)C)cc1	-0.38	i	3.2%
CC1=CC(=O)C=CC1(C)C(Cl)(Cl)Cl (stereo unspecified)	.	i	8.4%
CCn1nnnc1SCC(=O)c1cc(OC)ccc1OC	-0.69	i	1.1%
CC(C)NC(=O)C1CCN(C(=O)c2cc3sccc3n2Cc2ccc(F)cc2)CC1	-0.19	i	-8.3%
CC(C)(C)c1nnc2sc(SCC(=O)c3ccccc3)nn2c1=O	-0.1	i	1.3%
O=C(c1ccc(S(=O)(=O)N2CCCCCC2)cc1)N1CCN(c2ccccn2)CC1	-1.33	i	3.9%
Cc1nc(NNC(=O)c2ccc([N+](=O)[O-])cc2)cc(-c2ccccc2)n1	.	i	-6.0%
COCCN1Cc2cccc(C(=O)Nc3cccc(C)c3C)c2C1=O	-0.95	i	-0.5%
CC(c1ccco1)N(C(=O)COc1ccccc1[N+](=O)[O-])c1ccccn1 (stereo unspecified)	.	i	-0.3%
Cn1c(N)c(C(=O)COC(=O)C2(c3ccc(Cl)cc3)CCCC2)c(=O)n(C)c1=O	.	i	4.4%
COc1ccc(Cc2nnc(SCC(=O)c3ccccc3)o2)cc1	-0.73	i	2.8%
C=C(C)Cc1c(C)nc(-c2ccccc2)[nH]c1=O	-0.53	i	-1.7%
COc1ccc(C(=O)OCCNC(=O)c2c(Cl)nc3ccccn23)cc1	0.85	i	-1.7%
CCC(=O)N(Cc1cc2cc(OC)ccc2[nH]c1=O)c1ccccc1C	1.97	i	0.2%
Cc1csc2nc(CNC(=O)c3cccc(C(F)(F)F)c3)cn12	-0.9	i	0.1%
c1cn(CCCNc2ncnc3sc4c(c23)CCC4)cn1	-0.01	i	-2.6%
CCN(c1ccccc1)c1cc(C)nc2ncnn12	1.36	i	5.4%
CCN(CCNS(=O)(=O)c1ccc2c(c1)oc(=O)n2C)c1ccccc1	-0.91	i	5.2%
O=c1cc(-c2ccccc2)nc2nc(CCc3ccccc3)[nH]n12	-1.25	i	-3.5%
CNC(=O)c1cc(S(=O)(=O)N(C)C)ccc1Cl	0.85	i	-0.3%
Cc1ccc2c(c1)N1C(=O)c3ccccc3C1C1=C(CC(C)(C)CC1=O)N2 (stereo unspecified)	.	i	-1.5%
O=C(O)C1CCCCC1C(=O)NCCc1c[nH]c2ccccc12 (stereo unspecified)	0.71	i	3.4%
CC(C)CCOc1cccc(OCC(=O)N(C)C2CCS(=O)(=O)C2)c1 (stereo unspecified)	0.02	i	6.2%
O=C(c1c(F)cccc1F)N(Cc1ccccn1)C1CC1	.	i	-4.2%
CC(=O)Nc1cc(NC(=O)CCCC(=O)O)ccc1Cl	0.39	i	-1.1%
Cc1cc(N(C)C)cc(C)[n+]1[O-]	-0.61	i	5.7%
COC(=O)c1c(NC(=O)CSc2nnnn2-c2ccc3c(c2)OCO3)sc(C)c1C	1.3	i	3.8%
CC(NC(=O)c1ccco1)C(=O)OCc1cccc(Cl)c1 (stereo unspecified)	1.03	i	6.8%
CCOC(=O)c1c(NS(=O)(=O)c2ccc(Br)cc2)sc2c1CCC2	.	i	-5.1%
COCCn1c(C)cc(C(=O)CSc2n[nH]c(N)n2)c1C	-0.72	i	1.5%
Cn1c(=O)c2c(n(Cc3ccccc3)c1=O)NC(=O)C2CC(=O)NCc1cccc(Cl)c1 (stereo unspecified)	.	i	7.1%
O=C(Nc1ccccc1Cl)NC1(C(=O)N2CCCCC2)CCCCC1	.	i	0.4%
O=C1NCC(COCc2ccccc2)O1 (stereo unspecified)	0.41	i	-1.0%
CC(=O)c1ccc(N2CCN(C(=O)C3(S(=O)(=O)c4ccc(Cl)cc4)CC3)CC2)cc1	0.69	i	-2.8%
COC(=O)c1ccc(OCCOc2ccccc2)cc1	.	i	1.7%
CC(C(=O)Nc1ncn[nH]1)N1C(=O)c2ccccc2C1=O (stereo unspecified)	.	i	5.0%
Cc1cc2ncn(-c3ncnc4sc5c(c34)CCCC5)c2cc1C	.	i	-2.2%
COn1c(SCC(=O)N(C)C)nc2ccccc2c1=O	0.3	i	1.7%
CCCNc1cc(C)c(C#N)c2nc3ccccc3n12	.	i	-4.4%

(list continues)
SMILES	WNV NS2B-NS3 inh	MT1-MMP reporter	Hsc70
CCN(CC)CCCC1(CN)OCCc2ccccc21 (stereo unspecified)	0.79	i	3.6%
COc1ccc(CCn2nnnc2C(CC(C)C)N2CCC(C(N)=O)CC2)cc1OC (stereo unspecified)	-0.98	i	-2.5%
O=C1N[C@@H](Cc2cnc[nH]2)C(=O)N2CCC[C@@H]12	0.41	i	0.1%
COC(=O)Cc1c(C)nc2nc(NCc3ccc(Cl)cc3)[nH]n2c1=O	-0.18	i	4.1%
CN1CCN(CC(=O)Nc2ccc(Oc3ccccc3)cc2)CC1	0.72	i	4.9%
CN(Cc1cccs1)C(=O)COc1ccc(-c2nnco2)cc1	-1.14	i	-5.2%
c1ccc(CNc2ncnc3nc[nH]c23)cc1	.	i	-1.2%
O=C(O)CCc1ccc(-c2cccs2)n1NC(=O)c1ccc(O)cc1	0.08	i	-0.9%
Cn1cnnc1SCC(=O)c1ccc2c(c1)CCCC2	-0.84	i	1.4%
CC1(C(=O)CSc2nc3ccccc3[nH]2)CCC(=O)O1 (stereo unspecified)	0.81	i	0.8%
Cn1c(SCc2nnc(-c3ccccc3Br)o2)nc2sc3c(c2c1=O)CCC3	1.13	i	-11.3%
COc1ccc(Cl)cc1NC(=O)CCN1CCN(C)CC1	.	i	-1.3%
CCC(=O)N1CC23C=CC(CC2CC12CCCCC2)O3 (stereo unspecified)	0.57	i	0.2%
CCOC(=O)c1cnc2ccc(C)cc2c1NCCO	.	i	-0.2%

Gathered by group: the entries above containing a thiophene ring, fused or not.
SMILES	WNV NS2B-NS3 inh	MT1-MMP reporter	Hsc70
O=C(Cn1c(NCCO)nc2ccccc21)c1cccs1	-0.08	i	0.8%
O=C(CSc1nc(C2CC2)nc2sc3c(c12)CCCC3)NCc1ccco1	0.47	i	-5.8%
CCc1ccc(NC(=O)C(C)Oc2nnc(-c3cccs3)c(-c3cccs3)n2)cc1 (stereo unspecified)	.	i	-7.1%
O=C1Nc2ccc(NS(=O)(=O)c3cccs3)c3cccc1c23	-0.7	i	-2.9%
CC(C)NC(=O)C1CCN(C(=O)c2cc3sccc3n2Cc2ccc(F)cc2)CC1	-0.19	i	-8.3%
c1cn(CCCNc2ncnc3sc4c(c23)CCC4)cn1	-0.01	i	-2.6%
COC(=O)c1c(NC(=O)CSc2nnnn2-c2ccc3c(c2)OCO3)sc(C)c1C	1.3	i	3.8%
CCOC(=O)c1c(NS(=O)(=O)c2ccc(Br)cc2)sc2c1CCC2	.	i	-5.1%
Cc1cc2ncn(-c3ncnc4sc5c(c34)CCCC5)c2cc1C	.	i	-2.2%
CN(Cc1cccs1)C(=O)COc1ccc(-c2nnco2)cc1	-1.14	i	-5.2%
O=C(O)CCc1ccc(-c2cccs2)n1NC(=O)c1ccc(O)cc1	0.08	i	-0.9%
Cn1c(SCc2nnc(-c3ccccc3Br)o2)nc2sc3c(c2c1=O)CCC3	1.13	i	-11.3%
